ADAM17 inh: inhibitors of human ADAM17. P78536. recombinant ADAM17, EDANS/DABCYL FRET peptide cleavage. inhibition, % at 6.95 µM. hit rate 0.83% among 370,000;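 active = inhibition above the mean of compounds lying between control limits plus 3 SD, set per campaign, cut at about 8.5% in these data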;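 note: 0% = DMSO-only wells as the low control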
PLC-gamma1 inh: blocks human PLC-gamma1 enzyme activity; AID 720700; purified PLC-gamma1, fluorogenic substrate, fluorescence; P19174; hit rate 0.84% among 370,000; inhibition, % at 12.2 µM; in the data active = inhibition above about 9.5%
FXN GAA850 act: activators of GAA850 frataxin (FXN) promoter; HEK293 lucGAA850 FXN promoter luciferase reporter, 24 h; percent of 10 µM SAHA response; activation, % at 6 µM; hit rate 0.56% among 360,000; AID 540364;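 active = activation above the average of all compounds screened plus 3 SD, cutoff fixed separately per campaign, cut at about 7.5% in these data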;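 note: 0% = DMSO wells and 100% = 10 µM SAHA wells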
PLCb3 inh: blocks human PLC-beta3 enzyme activity | Purified PLC-beta3, fluorogenic substrate, fluorescence | inhibition, % at 12.2 µM | hit rate 0.18% among 370,000 | AID 720704 | Q01970; in the data active = inhibition above about 11%;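 note: 0% = median of compound wells on plate and 100% = full blocker control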
sPLA2-III inh: Inhibits HGIII-sPLA2 liposome hydrolysis, primary screen. Q9NZ20. QFRET BODIPY PC-A2 liposome hydrolysis, fluorescence. inhibition, % at 12.2 µM. hit rate 0.56% among 370,000;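 active = inhibition above mean plus 3 SD of compounds lying within the high and low control bounds, cut at about 19% in these data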;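 note: 0% = median of test compound wells and 100% = no enzyme DMSO wells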
ADAM10 inh: ADAM10 inhibition, QFRET primary screen; recombinant ADAM10, EDANS/DABCYL FRET peptide cleavage, 3 h; inhibition, % at 7 µM; hit rate 0.62% among 370,000; AID 720582;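 active = inhibition above a per-campaign cutoff equal to the mean of compounds falling between control-based bounds plus 3 SD, cut at about 20% in these data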;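 note: 0% = DMSO wells while the 100% control is not disclosed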
The depositor's hits bear a star; i = inactive; · = no result given; & = joins results of further samples; ! = repeats disagree. The list is partial; the hit share may differ from the screen's.

#1 CC/C(=C(\c1ccc(O)cc1)c1ccc(OCCN(C)C)cc1)c1ccccc1
#2 COc1c2occc2cc2ccc(=O)oc12
#3 C#C[C@]1(O)CC[C@H]2[C@@H]3CCC4=Cc5oncc5C[C@]4(C)[C@H]3CC[C@@]21C
#4 CCN(CC)CCOCCOC(=O)C1(c2ccccc2)CCCC1
#5 CCCC(CCC)C(=O)O
#6 O=C(COc1ccccc1Cl)N1CCc2ccccc21
#7 CCCn1c(=O)[nH]c(=O)c2[nH]cnc21
#8 O=C(NC(=S)Nc1ccccn1)c1ccc(-c2ccccc2)cc1
assay / compound	1	2	3	4	5	6	7	8
ADAM17 inh	1	-1	-6	0	-4&-8	1	-1	-1
PLC-gamma1 inh	1	-21	-2	-1	-1&0	1	1	-109
FXN GAA850 act	-3.4	1.5	4.3	-0.2	-0.5&-1.3	3.6	-1.9	4.4
PLCb3 inh	-2	-24	-1	0	4&1	-7	4	-11
sPLA2-III inh	-4	0	-6	-5	0&-1	-2	3	-5
ADAM10 inh	5	-13	-2	4	-1&-10	-2	-2	-7

The list goes on; it opens with the two that closed the last part.
#7 CCCn1c(=O)[nH]c(=O)c2[nH]cnc21
#8 O=C(NC(=S)Nc1ccccn1)c1ccc(-c2ccccc2)cc1
#9 O=C(O)C1CCN(S(=O)(=O)/C=C/c2ccccc2)CC1
#10 Cc1cc(N)n2nc(-c3ccc(C(C)(C)C)cc3)cc2n1
#11 Clc1ccc(-c2cn3ccccc3n2)cc1
#12 Cc1cc(C(=O)COC(=O)c2cccnc2Cl)c(C)n1C
#13 COc1ccc(C[C@H](C)NC[C@@H](O)c2ccc(O)c(NC=O)c2)cc1
#14 CN1[C@@H]2CC[C@H]1CC(OC(=O)[C@H](CO)c1ccccc1)C2 (stereo not given in full)
#15 COc1ccc(-c2nc(-c3ccncc3)no2)c(OC)c1
#16 CN(C)CCOC(c1ccccc1)c1ccccc1
assay / compound	7	8	9	10	11	12	13	14	15	16
ADAM17 inh	-1	-1	3	-7	-38	0	-4	-9	-6	-1&1
PLC-gamma1 inh	1	-109	9	-17	-8	-1	1	-1	1	0&3
FXN GAA850 act	-1.9	4.4	0.1	5.0	1.5	-1.9	4.0	-0.3	0.0	-1.3&-0.2
PLCb3 inh	4	-11	5	-22	-13	-3	-3	-1	-1	2&-1
sPLA2-III inh	3	-5	-1	-12	-1	4	-6	5	1	-4&-2
ADAM10 inh	-2	-7	4	-28	-106	-2	1	-7	-14	9&1

#17 O=C(Nc1nc2ccccc2s1)c1ccccc1
#18 O=C(NCc1cccnc1)c1cc(-c2ccco2)on1
#19 Nc1ccn([C@@H]2O[C@H](CO)[C@@H](O)[C@@H]2O)c(=O)n1
#20 O=C1NC(=S)SC1=Cc1ccccn1
#21 CCCCNc1ccc(C(=O)O)cc1
#22 O=C(Nc1ccccc1)N1CCc2ccccc21
#23 Cc1ccc(/C=C/C(=O)c2ccccc2)cc1
#24 Cc1ccccc1Nc1nc(N)nc(C)c1Br
assay / compound	17	18	19	20	21	22	23	24
ADAM17 inh	4	·	-2	1	-1	-4	7	0
PLC-gamma1 inh	-8	·	1	3	4	0	4	4
FXN GAA850 act	0.7	1.3	-6.1	·	0.4	4.7	2.3	1.4
PLCb3 inh	-13	·	6	1	-5	-4	5	-1
sPLA2-III inh	-4	·	2	1	5	-4	3	1
ADAM10 inh	3	·	10	7	9	-8	6	-13

#25 C[N+](C)(C)CCCCCCCCCC[N+](C)(C)C
#26 NC(=O)C(c1ccccc1)(c1ccccc1)[C@@H]1CCN(CCc2ccc3c(c2)CCO3)C1
#27 CN1[C@@H]2CC[C@H]1CC(OC(=O)C(CO)c1ccccc1)C2 (stereo not given in full)
#28 C[C@@H]1C[C@H]2[C@@H]3CCC4=CC(=O)C=C[C@]4(C)[C@@]3(F)[C@@H](O)C[C@]2(C)[C@@]1(O)C(=O)CO
#29 COc1ccc(-c2csc(-c3cccs3)n2)c(OC)c1
#30 COc1cc2c(c(OC)c1OC)-c1ccc(OC)c(=O)cc1[C@@H](NC(C)=O)CC2
#31 COc1ccc(Cn2cc(C(=O)O)c(=O)c3ccccc32)cc1
#32 CC(C)(C(=O)O)c1ccc([C@H](O)CCCN2CCC(C(O)(c3ccccc3)c3ccccc3)CC2)cc1
assay / compound	25	26	27	28	29	30	31	32
ADAM17 inh	0	0	-1	-3	-12	0	-3	0
PLC-gamma1 inh	2	2	2	-1	-32	1	-2	-2
FXN GAA850 act	-0.9	·	4.1	0.8&-0.9	4.9	-3.6	0.1	-1.6
PLCb3 inh	3	4	0	3	-58	3	2	0
sPLA2-III inh	-3	-14	-4	-5	-4	-5	-1	-11
ADAM10 inh	1	-2	2	1	-41	2	-7	-8

Record cards, from the list above.
`C[N+](C)(C)CCCCCCCCCC[N+](C)(C)C` in the list: ADAM17 inh = 0; PLC-gamma1 inh = 2; FXN GAA850 act = -0.9; PLCb3 inh = 3; sPLA2-III inh = -3; ADAM10 inh = 1
`COc1ccc(-c2csc(-c3cccs3)n2)c(OC)c1` in the list: ADAM17 inh = -12; PLC-gamma1 inh = -32; FXN GAA850 act = 4.9; PLCb3 inh = -58; sPLA2-III inh = -4; ADAM10 inh = -41

Given with two lines to a compound: part of the list above.
Screens in order – ADAM17 inh | PLC-gamma1 inh | FXN GAA850 act | PLCb3 inh | sPLA2-III inh | ADAM10 inh
(28) C[C@@H]1C[C@H]2[C@@H]3CCC4=CC(=O)C=C[C@]4(C)[C@@]3(F)[C@@H](O)C[C@]2(C)[C@@]1(O)C(=O)CO
→ -3 | -1 | 0.8&-0.9 | 3 | -5 | 1
(29) COc1ccc(-c2csc(-c3cccs3)n2)c(OC)c1
→ -12 | -32 | 4.9 | -58 | -4 | -41
(30) COc1cc2c(c(OC)c1OC)-c1ccc(OC)c(=O)cc1[C@@H](NC(C)=O)CC2
→ 0 | 1 | -3.6 | 3 | -5 | 2
(31) COc1ccc(Cn2cc(C(=O)O)c(=O)c3ccccc32)cc1
→ -3 | -2 | 0.1 | 2 | -1 | -7
(32) CC(C)(C(=O)O)c1ccc([C@H](O)CCCN2CCC(C(O)(c3ccccc3)c3ccccc3)CC2)cc1
→ 0 | -2 | -1.6 | 0 | -11 | -8

Remaining list, next part
#33 O=C(/C=C/c1cccs1)Nc1ccc(Br)cn1
#34 COc1ccc(NC(=O)c2ccc3ccccc3c2)cc1
#35 CC(C)(C)NC(=O)[C@@H]1C[C@@H]2CCCC[C@@H]2CN1C[C@@H](O)[C@H](Cc1ccccc1)NC(=O)[C@H](CC(N)=O)NC(=O)c1ccc2ccccc2n1
#36 Cc1cc(NS(=O)(=O)c2ccc(N)cc2)no1
#37 Brc1ccc(-c2cn3ccccc3n2)cc1
#38 Cc1ccc2nc(-c3ccc(NS(=O)(=O)c4ccc(F)cc4)cc3)sc2c1
#39 CS(=O)(=O)c1ccc([C@@H](O)[C@@H](CF)NC(=O)C(Cl)Cl)cc1
#40 Cc1cc(C)c(CNC(=O)c2cc(C3CC3)nc3c2cnn3C(C)C)c(=O)[nH]1
assay / compound	33	34	35	36	37	38	39	40
ADAM17 inh	-3	0	8&2	0	-14	i	-1	-3
PLC-gamma1 inh	-1	-1	9.7*!	2	-1	i	1	-5
FXN GAA850 act	6.4	3.7	-8.2&-5.8	-1.1	1.2	6.6	-0.8	0.9
PLCb3 inh	3	-4	0&-1	2	-3	i	1	-3
sPLA2-III inh	7	6	-37&-35	0	-4	-131	4	8
ADAM10 inh	-5	12	26*!	13	-23	i	-7	-21

Source: PubChem BioAssay (The Scripps Research Institute Molecular Screening Center)
